Arbovirus anti – blocks arbovirus infection | arbovirus infection cell-based antiviral screen | inhibition, % at 10 µM | actives 0.37% (n = 200,000) | AID 1251;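 active = inhibition from about 30%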;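 note: bluetongue infection of BSR cells; cell survival read as ATP light after 72 h; 0% = infected wells without compound and 100% = uninfected wells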
RecA intein inh – blocks M. tuberculosis RecA intein splicing; inhibition, %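 (about 9 µM by stock and volumes)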; cell-free RecA intein splicing, fluorescence; actives 0.75% (n = 290,000); P9WHJ3; in the data active = inhibition above about 30%; inconclusive = no clear call, values can overlap the other calls;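 note: 0% = vehicle wells and 100% = reference inhibitor control wells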
Target sequence (P9WHJ3 whole entry, looked up): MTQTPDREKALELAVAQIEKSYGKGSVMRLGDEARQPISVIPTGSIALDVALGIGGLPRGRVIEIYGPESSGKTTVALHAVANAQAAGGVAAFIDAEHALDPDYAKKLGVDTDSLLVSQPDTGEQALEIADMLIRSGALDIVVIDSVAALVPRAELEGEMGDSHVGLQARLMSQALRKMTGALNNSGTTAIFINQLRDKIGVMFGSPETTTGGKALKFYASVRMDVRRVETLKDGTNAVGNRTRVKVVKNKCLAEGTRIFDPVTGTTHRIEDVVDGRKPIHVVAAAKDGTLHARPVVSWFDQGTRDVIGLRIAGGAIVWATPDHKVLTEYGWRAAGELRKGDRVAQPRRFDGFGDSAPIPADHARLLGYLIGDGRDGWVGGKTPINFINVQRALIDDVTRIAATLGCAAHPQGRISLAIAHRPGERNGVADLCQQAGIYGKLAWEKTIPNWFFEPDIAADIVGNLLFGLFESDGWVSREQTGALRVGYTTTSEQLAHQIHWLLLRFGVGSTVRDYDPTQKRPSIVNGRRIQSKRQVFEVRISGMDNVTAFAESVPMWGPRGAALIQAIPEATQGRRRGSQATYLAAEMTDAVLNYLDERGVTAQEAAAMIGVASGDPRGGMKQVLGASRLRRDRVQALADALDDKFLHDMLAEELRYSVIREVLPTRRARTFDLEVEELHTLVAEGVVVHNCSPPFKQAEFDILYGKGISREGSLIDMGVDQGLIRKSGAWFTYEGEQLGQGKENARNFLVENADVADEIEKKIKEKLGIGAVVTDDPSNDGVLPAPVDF
YopH PTP inh – inhibitors of Yersinia enterocolitica YopH tyrosine phosphatase | fluorescence Ex485/Em525 | inhibition, %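 (about 10 µM by stock and volumes)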 | actives 0.16% (n = 140,000) | AID 898;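 active = inhibition of 50% or more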;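 note: controls were vehicle for no effect and minimum signal wells for full effect; inactives centre near -20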
Mtb bLac sens – beta-lactam sensitization of Mtb H37Rv | M. tuberculosis H37Rv growth with meropenem, percent inhibition; hits of this screen are not shown here | inhibition, % at 25 µM | actives 0.27% (n = 330,000) | AID 434955;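 active = about 74% or more and at least 40 points above the plate without the antibiotic, then above 30% in a dose series; inconclusive = first-round hits that could not be retested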;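 note: growth measured after seven days incubation then overnight dye step; 0% = bacteria only wells and 100% = bacteria with antibiotic; twin plates without the antibiotic show which effects depend on it; some results filed as inactive read as strong as hits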
Mtb H37Rv – M. tuberculosis H37Rv growth inhibitors, H37Rv strain (AID 1626) | M. tuberculosis H37Rv growth inhibition; higher % means a stronger effect | one-dose inhibition, % at 10 µM; IC50 in µM for titrated hits | actives 0.95% (n = 220,000);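 active = confirmed in a dose series; inconclusive = inhibition above 80% but not taken into the dose series; inactive = below 80% or under 30% at every dose of the series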;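 note: bacteria incubated seven days before Alamar blue readout; 0% = bacteria only wells and 100% = bacteria with antibiotic wells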
Arbovirus anti repeat – also measured in Arbovirus anti; calls as there; inhibition, %; measured here: 10K subset replicate screen; many hits read low in the repeat;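 first of two repeat runs on a subset; 0% = infected and 100% = uninfected wells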
An asterisk follows results filed as active; ? = inconclusive; . = not tested or not shown. A portion of the library; count on the stated rates, not on these rows.

Sample of the layout, 4 compounds:
SMILES	Arbovirus anti	RecA intein inh	YopH PTP inh	Mtb bLac sens	Mtb H37Rv	others
Oc1ccc(-c2nccc(-c3ccccn3)n2)cc1	.	-0.3	.	9	.
CC(C)(C)C1CCC(C(=O)OCC(=O)N2CCN(C(=O)c3ccco3)CC2)CC1 (centres undefined)	2	0.1	.	1	-2%
COc1ccccc1-n1c(-c2cc(-c3ccc(F)cc3)n[nH]2)n[nH]c1=S	9	.	.	3	-18%
CC(C)(C)NC(=O)COc1ccc(CNc2ncn[nH]2)cc1	-2	2.0	.	3	-10%

All compounds of this part, from the first entry:
SMILES	Arbovirus anti	RecA intein inh	YopH PTP inh	Mtb bLac sens	Mtb H37Rv	others
Oc1ccc(-c2nccc(-c3ccccn3)n2)cc1	.	-0.3	.	9	.
CC(C)(C)C1CCC(C(=O)OCC(=O)N2CCN(C(=O)c3ccco3)CC2)CC1 (centres undefined)	2	0.1	.	1	-2%
COc1ccccc1-n1c(-c2cc(-c3ccc(F)cc3)n[nH]2)n[nH]c1=S	9	.	.	3	-18%
CC(C)(C)NC(=O)COc1ccc(CNc2ncn[nH]2)cc1	-2	2.0	.	3	-10%
CCc1ccc(NC(=S)Nc2ccc(S(=O)(=O)Nc3ncccn3)cc2)cc1	6	5.8	.	.	50%
CCC(C)(C)NC(=O)Cn1c(-c2ccccc2)cc(C(C)=O)c1C	7	-0.5	.	-3	3%
CCn1c(SCC(=O)Nc2cc(NC(C)=O)ccc2OC)nnc1-c1cccnc1	3	0.6	-26	1	-1%
COc1cc(OC)c(OC)cc1/C=N/NC(=S)NCC1CCCO1 (centres undefined)	-7	-0.1	-11	-2	0%
O=C(Nc1ncn[nH]1)c1ccc([N+](=O)[O-])cc1[N+](=O)[O-]	4	-33	7	16	-10%
Cc1ccc(-c2c(NCCc3ccccc3)c(=O)c2=O)cc1	.	-2.4	.	5	.
O=[N+]([O-])c1ccc(N2CCN(C(=S)c3cccc([N+](=O)[O-])c3)CC2)cc1	.	2.9	.	-1	2%
Cc1ccc(-n2ncc3c(SCc4ccccc4)ncnc32)cc1	16	0.0	1	13	17%
Nc1ccc(OCCCc2c(N)nc(N)nc2N)cc1	.	-0.3	.	-11	-6%
CCN(CC)S(=O)(=O)c1ccc(N=Cc2c(O)n(-c3ccccc3)c(=O)[nH]c2=O)cc1	-1	1.7	-35	-1	-3%
CNc1nc(-c2ccccc2)nc(-c2ccccc2)c1C#N	8	-0.9	-15	12	-3%
Cc1ccc(/C=N/NC(=O)c2nnn(-c3nonc3N)c2CSc2ccccc2)s1	.	-3.0	.	2	.
CSc1ccc(/C=C(\NC(=O)c2ccc(C)cc2)C(=O)NN)cc1	.	30	.	-5	-5%
Cc1ccc(S(=O)(=O)N(C)c2ccc(C(=O)NCc3ccccc3F)cc2)cc1	.	3.7	.	-6	.
Cc1ccc(C)n1CCN1CCN(C(=O)CC#N)CC1	9	-0.8	.	6	4%
O=C(c1ccccc1)N1CCN(CC(O)COc2ccc(Br)cc2)CC1 (centres undefined)	.	3.7	.	-1	.
CN(C)S(=O)(=O)c1ccc(C(=O)OCn2nnc3ccccc3c2=O)cc1	0	-2.5	-44	80	8%
CN(C)c1ccc(/C=C(\NC(=O)c2ccccc2)C(=O)N/N=C/c2ccc(C(=O)O)cc2)cc1	.	7.6	.	6	.
O=C(Nc1ccc(N2CCCC2)cc1)C(Cl)c1ccccc1 (centres undefined)	3	7.6	-7	-4	1%
CN(Cc1cnn(C)c1)C(=O)C1CCC(=O)N(Cc2ccc(Cl)cc2)C1 (centres undefined)	.	2.1	.	-5	.
Cc1ccc(C(=O)Cn2c(C)cc(C)c(C#N)c2=O)cc1	7	-2.0	-22	5	5%
COc1ccc(OC)c(C(C(=O)NC2CCCCC2)N(C(=O)c2ccccn2)c2cccnc2)c1 (centres undefined)	.	-3.0	.	0	.
Cn1c(Cc2cccs2)nnc1SCC(=O)Nc1ccc(F)cc1F	.	1.0	.	-2	.
COc1cc(CC(=O)OCC(=O)Nc2cccc([N+](=O)[O-])c2)cc(OC)c1OC	9	-0.6	1	-8	11%
Cc1c(C(=O)OC2CCCC2)[nH]c2c1C(=O)CC(c1ccco1)C2 (centres undefined)	-8	2.3	-23	11	-5%	Arbovirus anti repeat=-6
Cc1ccc[n+](CC(=O)Nc2nc3ccccc3s2)c1	1	-0.8	.	1	-1%

3 successive records from above:
SMILES	Arbovirus anti	RecA intein inh	YopH PTP inh	Mtb bLac sens	Mtb H37Rv	others
Cc1ccc(/C=N/NC(=O)c2nnn(-c3nonc3N)c2CSc2ccccc2)s1	.	-3.0	.	2	.
CSc1ccc(/C=C(\NC(=O)c2ccc(C)cc2)C(=O)NN)cc1	.	30	.	-5	-5%
Cc1ccc(S(=O)(=O)N(C)c2ccc(C(=O)NCc3ccccc3F)cc2)cc1	.	3.7	.	-6	.

(cont.)
SMILES	Arbovirus anti	RecA intein inh	YopH PTP inh	Mtb bLac sens	Mtb H37Rv	others
C=CCNC(=O)COc1ccc(S(=O)(=O)NC2CCCCC2)cc1	10	-1.5	-11	-4	-6%
CCCCOC(=O)c1ccc(NC(=S)NC(=O)c2c(Br)c(C)nn2C)cc1	-5	-2.1	-23	96	?
Cn1c(CO)cnc1S(=O)(=O)Cc1ccc([N+](=O)[O-])cc1	-10	-2.0	-36	-13	-9%
COc1cc(O)c(C(CC(=O)N2CCCC(C)C2)c2cc(OC)c(OC)c(OC)c2)c(OC)c1 (centres undefined)	.	-1.8	.	-12	-5%
CCOc1ccc(C(=O)Nc2ccc(NC(=O)c3ccccc3)c(C)c2)cc1[N+](=O)[O-]	.	-3.7	.	6	.
COc1cc(C2C(N3C(=O)c4ccccc4C3=O)C(=O)N2c2cccc(C)c2)cc(OC)c1OC (centres undefined)	5	.	6	.	6%
COc1ccc(S(=O)(=O)N(C(=O)c2ccco2)c2cc3sc(=O)oc3c3ccccc23)cc1	-32	5.7	-25	8	20%
COc1ccccc1-n1cnnc1SCC(=O)NCc1cccs1	6	-4.3	-29	-13	-1%
CSc1ccccc1NC(=O)C1CC(c2ccccc2O)=NO1 (centres undefined)	6	-2.4	-33	6	1%
O=C(NCCN1CCCCC1)c1ccco1	-1	2.9	-7	-15	0%
COc1ccc(-c2nn(-c3ccccc3)cc2C(=O)N(C)CC(=O)Nc2ccc(N3CCOCC3)cc2)cc1	.	-0.6	.	-5	.
Cc1cc(C(=O)OCC(=O)Nc2cc(S(=O)(=O)N(C)C)ccc2C)c2ccccc2n1	-5	0.6	.	-2	2%
COc1ccc(CCNC(=O)C2CC(c3ccc(C(F)(F)F)cc3)=NO2)cc1 (centres undefined)	.	-2.4	.	9	-3%
CCCc1sc(N2CCCC(C(N)=O)C2)nc1-c1ccccc1 (centres undefined)	6	3.7	-24	-5	0%
COc1ccc(NC(=O)CN2CCN(S(=O)(=O)c3ccc(F)cc3)CC2)cc1Cl	-7	-0.4	-43	6	-4%
O=C(Nc1nc2ccccc2[nH]1)c1ccc(F)cc1	-10	1.4	-59	99	?
COc1ccccc1CNC(=O)COC(=O)/C=C/c1ccc(OC(F)F)c(OC)c1	.	-0.1	.	3	.
Cc1cccc(C(=O)N[C@H](C(=O)NCCc2ccc(Cl)cc2)C(C)C)c1	.	-1.1	.	3	.
Cc1cccc(NC(=O)c2cc(-c3ccccn3)nc3ccccc23)c1C	-1	-6.9	.	9	10%
COc1cccc(/C(O)=C2/C(=O)C(=O)N(Cc3ccco3)C2c2ccncc2)c1 (centres undefined)	7	0.5	-31	-2	2%
CCCS(=O)(=O)N1CCn2c(nc3ccccc32)C1	12	1.4	-36	5	.	Arbovirus anti repeat=2
CN(C)c1ccc(NC(=O)c2ccc3nc[nH]c3c2)cc1	.	-2.6	.	4	.
Cc1cc(C)cc(OCC(=O)NNC(=O)C2CCCO2)c1 (centres undefined)	13	1.0	.	0	-6%
NC(=O)C1CCN(C(=O)COc2ccc3c(c2)oc(=O)c2ccccc23)CC1	.	0.2	.	-11	.
O=c1[nH]c2cc3c(cc2cc1CN(Cc1ccco1)C(=S)NCCCN1CCOCC1)OCCO3	0	2.3	.	-1	-16%
O=C(O)CN1C(=O)C2(OCCO2)c2cc(Br)ccc21	.	-1.4	.	5	.
CCN(CC)c1ccc(Nc2nc(N3CCOCC3)c3ccccc3n2)cc1	-8	-1.1	-19	14	-6%
CCOc1ccc(NC(=S)N(CCOC)C(C)c2ccco2)cc1 (centres undefined)	.	-235	.	0	4%
N#Cc1ccc(-c2ccccc2)nc1SCC(=O)c1cc2ccccc2oc1=O	24	-4.8	-36	100	1.6µM*
COc1ccc(Br)cc1CN(C)CC(=O)Nc1cc(Cl)cc(Cl)c1	-4	9.1	-5	2	4%
CCC(CC)c1nnc(NC(=O)c2cc([N+](=O)[O-])ccc2N2CCCCC2)s1	-5	11	-31	12	4%
CCCCOc1ccc(C(=O)Nc2ccc(N3CCN(C(C)=O)CC3)cc2)cc1	-4	1.0	-1	13	.
CCc1ccc2cccc3c2c1N=CN3C	.	-6.4	.	15	.
Cn1c(=O)oc2cc(S(=O)(=O)N3CCCC(C(=O)NCc4ccc5c(c4)OCO5)C3)ccc21 (centres undefined)	-9	.	-31	-1	4%	Arbovirus anti repeat=-16
CC(c1ccccc1)n1cnc2ccccc21 (centres undefined)	-1	0.2	-24	-3	-3%	Arbovirus anti repeat=0
COCCn1nnnc1SCC(=O)c1ccccc1	3	-0.5	-32	-3	3%
Nc1nc(C(=O)N2CCOCC2)nn1S(=O)(=O)c1ccccc1	12	-1.5	-26	-8	-14%
Cc1cc(-c2onc(C)c2C(=O)O)no1	.	0.3	.	6	2%
CC(C)Oc1cccc(C(=O)Nc2ccc(CN3CCOCC3)cc2)c1	-5	6.2	-10	8	-1%
CCN(CC(=O)NCc1cccs1)C(=O)c1cccc(S(=O)(=O)N2CCc3ccccc32)c1	9	3.2	.	-2	-2%
COC(=O)C(O)(CC(=O)Nc1ccc(Cl)cc1F)C(F)(F)F (centres undefined)	-3	.	2	-1	-3%
CCOc1cc2c(cc1OCC)-n1cccc1C(c1ccc(OC)cc1)NC2 (centres undefined)	.	-1.1	.	13	.
O=C1CCC[C@@H]2Cc3[nH]c4c(Cl)ccc(Cl)c4c3[C@@H]3CCN1[C@H]23	.	7.6	.	1	.
O=C(c1cc2cc(F)ccc2[nH]1)N1CCc2ccccc2C1	.	-1.4	.	-2	.
CSc1ccc(CNc2nc3ccccc3n3cnnc23)cc1	.	-2.4	.	-7	-17%
Cc1cccc(C)c1NC(=O)N1C2CCC1CC(O)(c1cccnc1)C2 (centres undefined)	1	-1.1	.	-6	-13%
Cc1ccc(NNC(=O)c2cc(C)on2)c(C)c1	.	-0.6	.	68	9%
CN(C)c1ccc(/C=N\NC(=O)c2ccc(Cn3cc(Cl)cn3)cc2)cc1	-22	-1.7	-31	10	-4%
Cn1nc(-c2ccc(S(N)(=O)=O)s2)cc1C(F)(F)F	.	1.3	.	-8	-1%
COc1cccc(CN(CC(=O)NC2CCCC2)C(=O)c2csnn2)c1	.	0.1	.	3	.
CC1CCN(c2ccccc2NC(=S)NC(=O)c2ccco2)CC1	.	-2.0	-37	0	18%
Cc1cc(C)c(S(=O)(=O)c2ccccc2C)c(SCC(C)C)n1	-11	14	-38	-1	9%
Cc1cnc(NC(=O)CSc2nnc(COc3c(C)cccc3C)o2)s1	-4	2.5	-5	1	-4%	Arbovirus anti repeat=-4
CCOc1ccc(S(=O)(=O)Nc2ccc3c(c2)c2c(n3S(=O)(=O)c3ccc(OCC)cc3)CCCC2=O)cc1	-5	2.3	0	4	2%
C=CCOC(=O)C1=C[C@@H](c2ccccc2)C[C@@H](OCc2ccc(CO)cc2)O1	-2	3.9	.	-2	8%
COc1ccccc1C(=O)Nc1ccccc1N1CCOCC1	13	2.6	4	5	3%
O=C(Nc1ccc2c(c1)OCCO2)c1cccnc1	1	-1.6	-9	-7	2%
Cc1ccc(/C=N/NC(=O)CC(=O)NCc2cccnc2)cc1	-7	1.6	-18	-3	-1%
CCC(=O)Nc1ccnc(-c2cccnc2)n1	2	-0.6	-26	-9	-1%
COc1cccc(NC(=O)C2CCN(S(=O)(=O)c3ccc4c(c3)C(C)(C)C(=O)N4C)CC2)c1	.	1.0	.	3	.
COc1ccccc1N1CCN(C(=O)c2cc3c(-c4ccc(Cl)cc4)nn(C)c3s2)CC1	8	6.5	0	24	25%	Arbovirus anti repeat=-9
O=C(CN1CCC(Cc2ccccc2)CC1)NC(=O)NCc1ccccc1	2	4.7	-6	-3	16%
